Screening data deposited in PubChem BioAssay by National Center for Advancing Translational Sciences (NCATS).
ClpP mod = qHTS Assay for Activators of ClpP. ATP-dependent Clp protease proteolytic subunit (Bacillus subtilis (strain 168)), P80244. Potency, µM (doses to about 57.5 µM), for the others: top-dose activity change, negative = active. hit rate 1.9% among 340,000. purified B. subtilis ClpP, FRET peptide cleavage, 20 min. AID 651965, 2013; active = well fitted falling curve with a large enough effect; inconclusive = small, poorly fitted or top-dose-only effect; inactive = no such curve, though single readings can be large or run the other way; note: potency is the fitted concentration of half-maximal effect; the source files actives as falling curves though it sought activators and does not explain the sign; nearly all actives have a fitted effect of over 65% in size; many hits overshoot -100%
Target sequence (P80244 whole entry, looked up): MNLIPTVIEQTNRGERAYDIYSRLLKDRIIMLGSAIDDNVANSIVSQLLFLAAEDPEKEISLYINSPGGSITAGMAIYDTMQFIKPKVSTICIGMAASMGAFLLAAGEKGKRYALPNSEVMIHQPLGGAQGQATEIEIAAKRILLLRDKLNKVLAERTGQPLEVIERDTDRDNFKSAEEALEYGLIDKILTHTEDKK
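Buffer: 100 mM Tris/HCl pH8, 100 mM KCl, 0.05% low protease BSA, 2.5% glycerol, 0.01% Tween-20. ClpP 10 microg/mL final; 20 min RT; delta FRET normalized to ADEP and DMSO controls.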
gsp ag = agonists of gsp mutant (McCune-Albright syndrome); gsp mutant cells, cAMP HTRF, 30 min; control for the full effect not named in the record; Potency, µM (doses to about 76.9 µM), inactives show at the highest dose activation (cAMP increase), actives largely listed as activators; hit rate 0.13% among 340,000; AID 624287; active = well fitted activation curve with a large enough effect; inconclusive = small, poorly fitted or top-dose-only effect, or another doubt; inactive = no such curve, though single readings can be large or run the other way; cell line not stated here;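 note: phosphodiesterase inhibitor Ro 20-1724 added with compounds to block cAMP breakdown; potency is the fitted concentration of half-maximal effect; nearly all actives have a fitted effect of over 60% in size; about a fifth of the inactives were tested at one dose only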
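Cells stably selected in G418 were plated at 2000/well, grown 16-24 hr, then given compounds in DMSO with the PDE inhibitor […] (300 uM solution added) for 30 min at 37C; cAMP was read by HTRF.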
TRPML1 inh = inhibitors of human TRPML1 channel; hit rate 0.02% among 390,000; activity change, negative = inhibition, % (concentration not given with the values); TRPML1-inducible cells, Ca2+ dye fluorescence, FDSS; stronger effect = lower value; inhibition of EC80 agonist-evoked calcium signal; Q9GZU1; in the data active means activity change below about -50%; inconclusive means about -30% to -50%; inactive means above about -30%;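 note: stimulus is agonist 54-4 at its EC80 concentration; % is set by controls: 0 for no effect and ±100 for the full control effect; compound concentration not given in the record; the text of the record puts the active cut at -80%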
Target sequence (Q9GZU1 whole entry, looked up): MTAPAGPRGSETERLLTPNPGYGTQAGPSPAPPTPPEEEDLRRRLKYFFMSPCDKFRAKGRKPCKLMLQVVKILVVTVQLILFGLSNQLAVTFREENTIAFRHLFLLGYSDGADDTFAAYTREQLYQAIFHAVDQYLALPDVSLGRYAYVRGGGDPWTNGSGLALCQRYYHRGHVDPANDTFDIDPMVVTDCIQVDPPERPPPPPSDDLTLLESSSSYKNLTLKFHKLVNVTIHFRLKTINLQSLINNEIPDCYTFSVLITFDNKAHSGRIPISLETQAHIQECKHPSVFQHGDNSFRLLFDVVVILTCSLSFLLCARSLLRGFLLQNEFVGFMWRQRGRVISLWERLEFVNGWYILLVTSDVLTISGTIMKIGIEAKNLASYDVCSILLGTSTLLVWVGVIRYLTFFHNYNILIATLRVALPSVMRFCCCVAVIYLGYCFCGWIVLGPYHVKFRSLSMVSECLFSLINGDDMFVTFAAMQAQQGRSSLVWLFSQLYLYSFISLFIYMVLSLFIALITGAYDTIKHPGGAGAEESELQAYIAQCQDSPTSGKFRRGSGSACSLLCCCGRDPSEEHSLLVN
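Calcium fluorescence in TRPML1-DL cells induced overnight with Tet: a 110 s read after compound pin addition, then a 110 s antagonist read after challenge with 54-4 at 4 uM final (EC80).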
TRPML1 ag = activates the human TRPML1 channel; hit rate 0.12% among 410,000; activation, % (concentration not given with the values); AID 624414; TRPML1-expressing cells, Ca2+ dye fluorescence, FDSS; host cell line not named in the record; reference of the full effect not given here; in the data active = activation above about 50%; inconclusive = about 30% to 50%; inactive = below about 30%; note: 0% is about no effect; the text of the record puts the active cut at 80%
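Tet-induced TRPML1-DL cells, 1,500 per well, cultured overnight, were loaded with a no-wash Ca2+ dye for 45–90 min. Calcium fluorescence was recorded on the FDSS for 110 s after compound addition, before the EC80 agonist (4 uM 54-4) was added.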
gsp antag = antagonizes gsp, the McCune-Albright syndrome mutation; gsp-mutant cells, cAMP HTRF, 30 min; control for the full effect not named in the record; Potency, µM (top dose mostly 76.9 µM), without a hit: at the highest dose activity change, negative = inhibition, most hits filed as inhibitors; hit rate 0.4% among 340,000; AID 624288; active = falling curve of any shape with a large fitted effect; inconclusive = falling curve, mostly with a smaller effect; inactive = flat or rising curve; cell line not stated here;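 note: intracellular cAMP measured with PDE inhibitor Ro 20-1724 present during compound exposure; potency is the fitted concentration of half-maximal effect; % is set by controls: 0 for no effect and ±100 for the full control effect; nearly all actives have a fitted effect of over 65% in size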
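Measurement of cellular cAMP by homogeneous time-resolved fluorescence following a 30 min compound exposure at 37C. The PDE inhibitor […] was present throughout; the assay buffer was DPBS with 0.05% BSA and 0.005% Tween 20.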
Menin-MLL FL inh = inhibitors of human menin-MLL interaction, wild-type MLL peptide. Fluorescence polarization, fluorescein-MLL peptide displacement from menin. FP activity change, % at 61.4 µM. 290,000 tested, under 10 active. AID 1766; inconclusive = falling polarisation curve, or a change in total fluorescence; inactive = total fluorescence flat and polarisation flat or rising; no compound was filed as active; the % refers to the polarisation; negative = inhibition;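 note: % of control where 0% means no effect; inhibitors lower the polarisation; unlabelled MLL peptide was the positive control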
* hit, by the source's call; u = inconclusive; x = not tested or not shown; & = joins results of further samples; [ ] = another dose, or the depositor's remark. Rows are unselected; 2.1% or so of the library scored in one or more.

SMILES | ClpP mod | gsp ag | TRPML1 inh | TRPML1 ag | gsp antag | Menin-MLL FL inh
Cc1cccc(C)c1NC(=O)C1CCN(S(=O)(=O)c2cccc3nsnc23)CC1 | -5.1% | x | 42 | -0.7 | x | x
COc1ccccc1C1C(C(C)=O)=C(C)N=c2s/c(=C\c3cc(OC)c(OC)c(OC)c3)c(=O)n21 (stereo unspecified) | -0.5% | -4% | 4 | 0.8 | 11% | -4.5
COc1ccccc1-c1cc(N)n[nH]1 | -2.7% | 18% | -1 | -0.9 | 4% | 3.0
Cc1cccc(NS(=O)(=O)c2cc(C(=O)N3CCN(C)CC3)ccc2C)c1 | 0.4% | -2% | -2 | 0.1 | 0% | -3.0
Cc1cccnc1NC(N)=S | x | -38%[inhibitor] | -3 | 0.6 | 6% | 4.6
COc1ccc(C(=O)[C@H]2[C@H]3C(=O)N(c4ccccc4)C(=O)[C@H]3C3C=CC=NN32)cc1 (stereo partly specified) | x | -4%[15.4 µM] | 46 | 1.0 | -7% | u
CCc1cc(C(=O)NNC(=S)Nc2cccc(C)c2)cs1 | 5.8% | -7% | -15 | 0.7 | -8% | 3.8
O=CN(Cc1ccco1)C1(C(=O)NC2CCCCC2)CCCCC1 | -2.0% | -6% | 11 | 1.5 | 4% | -0.6
CSCCC(NC(=O)c1ccccc1)C(=O)N/N=C(\C)Cc1ccccc1 (stereo unspecified) | 1.9% | 19% | 13 | -0.3 | 15% | x
COc1ccc(-n2c(CCc3ccccc3)nnc2SCC(=O)c2ccccc2)cc1 | -1.4% | -10% | 7 | -0.1 | -17% | 0.6
Cc1nc2ccccc2c(=O)n1CCCO | -0.8% | 0% | -6 | -0.7 | 11% | 5.4
C=CCn1c(SCc2ccccc2F)nc2cc(C(=O)O)ccc2c1=O | x | -1%[15.4 µM] | 13 | -0.6 | u | -6.3
Clc1cccc(NCc2ccccc2)n1 | -1.4% | 18% | 3 | 1.5 | 8% | 2.6
O=C(CSc1nnc(Cc2ccccc2)o1)NCc1ccco1 | 0.3% | -15% | 6 | -0.1 | 6% | 0.8
CC1CC(C)CN(C(=O)CN2C(=O)NC(c3ccccc3)(c3ccccc3)C2=O)C1 (stereo unspecified) | 1.9% | -5% | -6 | 0.5 | 0% | x
CCOC(=O)c1cccc(NS(=O)(=O)c2ccc(NC(C)=O)cc2)c1 | 4.7% | -12% | 10 | 0.7 | 17% | -0.8
C=C1CSc2nc(=O)c3c4c(sc3n21)CCC4 | -2.3% | u | 7 | 0.7 | -5% | 1.2
COc1ccc(C)cc1NC(=O)C1COc2ccccc2O1 (stereo unspecified) | 0.0% | -17% | 33 | 1.5 | -14% | -4.8
COc1ccccc1CNC(=O)c1ccc(NS(C)(=O)=O)cc1 | -4.1% | 2% | 7 | 0.1 | 8% | 0.3
NC(N)=NC(N)=Nc1cccc(Cl)c1 | 0.6% | x | -10 | 0.2 | -2% | u
CCOc1ccc(-c2nc(CNC(=O)NC3CCCCC3)c(C)o2)cc1 | -3.1% | x | 2 | 1.1 | x | x
COC(=O)c1sc2ncccc2c1OCc1ccc(Cl)cc1 | 35µM* | 12% | 27 | 4.4 | 12% | 1.3
O=C(NC1CC1)C1CCN(C2CCN(C(=O)CSc3ccccc3)CC2)CC1 | -1.0% | u | -7 | -0.1 | 7% | -2.5
Cc1ccc(C)c(-n2c(CNC(=O)c3ccco3)nnc2SCC(=O)Nc2nccs2)c1 | 0.4% | -36%[inhibitor] | 3 | -1.3 | -2% | -0.1
Cc1cc(CNC(=O)Cn2cc([N+](=O)[O-])cn2)c2ccccc2n1 | -21% | 30%[15.4 µM] | 14 | 0.4 | 7% | -4.2
COc1ccc(S(=O)(=O)N(CCC(N)=O)Cc2ccco2)cc1OC | x | 3%[15.4 µM] | -4 | 0.5 | 4% | 1.1
O=C(NNC(=S)Nc1ccc(Br)cc1)c1ccccc1Br | -4.5% | 7%[15.4 µM] | 49 | 0.2 | -5% | 2.7
Nn1c(COc2ccccc2F)nnc1SCC(=O)NCC1CCCO1 (stereo unspecified) | 1.4% | -39%[inhibitor] | -3 | 0.0 | x | x
COc1cc(CNCCCSc2nnnn2C)cc(Br)c1OC | 0.0% | x | -18 | 0.9 | x | x
N#CCNC(=O)c1nn2c(C(F)(F)F)cc(-c3ccccc3)nc2c1Br | -0.3% | 9%[15.4 µM] | 1 | -1.3 | u | -0.6
O=C(NCc1ccc(F)cc1)c1noc2c1CCCC2 | -1.8% | u | 15 | -0.1 | -6% | -0.2
CCOC(=O)Cc1ccc(NC(=O)NC(C)c2c(-n3cccc3)sc(C)c2C)cc1 (stereo unspecified) | -2.8% | x | 5 | 1.4 | x | x
N#C/C(=C\C1=C(N2CCOCC2)C(=C\c2ccccc2)/CC1)C(=O)Nc1ccccc1F | -0.1% | -30% | 6 | 3.6 | u | u
O=C(NC(Nc1nc2ccccc2s1)(C(F)(F)F)C(F)(F)F)c1ccccc1 | -1.3% | 0% | -26 | 4.7 | 6% | 0.7
COc1ccccc1/C=C/C(=O)N1CCC(c2ccccc2)C1 (stereo unspecified) | -11% | 6% | 5 | -0.7 | -6% | 2.5
CCn1cc(S(=O)(=O)c2ccc(OC)cc2)c(=O)c2cc(F)c(N3CCCCCC3)cc21 | -14% | x | 14 | -0.9 | x | x
CCOC(=O)c1c(C)[nH]c(C2=NNC(=NC(C)COC)SC2)c1C (stereo unspecified) | x | -35%[inhibitor] | 6 | 0.9 | -2% | 3.7
Cc1csc2nc(COC(=O)c3ccccc3NC(=O)c3ccc(C(C)(C)C)cc3)cc(=O)n12 | -9.2% | x | -14 | 3.0 | x | x
COc1ccc(CN2CCN(Cc3c[nH]c4ccccc34)CC2CCO)c(F)c1 (stereo unspecified) | -1.4% | 16%[15.4 µM] | 10 | -0.2 | 10% | -6.1
O=C(/C=C/c1cccs1)NC(=S)NNC(=O)Cc1cccs1 | 1.3% | -6% | 9 | 0.0 | -9% | 4.0
CCc1ccc(Sc2cc(C(=O)NCCN3CCOCC3)c3ccccc3n2)cc1 | -4.9% | -32%[inhibitor] | -21 | -0.2 | 0% | -0.2
O=C(CN1C(=O)NC2(CCCc3ccccc32)C1=O)NCc1ccc(Cl)cc1Cl (stereo unspecified) | -1.2% | -29% | -5 | -0.3 | -12% | 0.7
CNc1nc(Oc2ccc(=O)n(C)n2)nc(N2CCOCC2)n1 | 2.2%&-0.7% | -7% | -12&-3 | 1.2&-0.2 | 3% | 2.0
CCn1c(=Nc2ccc(N3CCOCC3)cc2)ccc2ccccc21 | 1.3% | 15% | -5 | 0.7 | 1% | -2.6
COc1ccccc1N(C)S(=O)(=O)c1ccc(C(=O)OCC(=O)Nc2ccccc2F)cc1 | -0.2% | -80%[inhibitor] | 0 | 0.1 | u | -1.9
COc1ccc(-c2cn3c(n2)sc2cc(C(=O)Nc4ccc(F)cc4)ccc23)cc1 | -24% | x | 3 | 0.2 | x | x
CCOC(=O)C(C)Oc1cccc2c(=O)n(CC(=O)N3CCCc4ccccc43)ccc12 (stereo unspecified) | -24% | u | -2 | 0.3 | -2% | -0.7
COc1ccc(CN2CCNC(=O)C2CC(=O)N(C)CCCN2CCOCC2)cc1C (stereo unspecified) | -2.4% | -17% | 5 | -0.6 | 6% | x
COc1ccccc1NC(=S)N1CCN(C(c2ccccc2)c2ccccc2)CC1 | -2.1% | 0% | -18 | 0.4 | -9% | 1.4
Cc1ccc(-n2ncc3c(NCc4cccnc4)ncnc32)c(C)c1 | -24% | 20% | 27 | 1.2 | -7% | -1.5
CCC(=O)N1CCc2cc(Br)cc(S(=O)(=O)N3CCC(C(=O)Nc4ccccc4CC)CC3)c21 | 0.1% | x | 35 | 4.2 | x | x
Cc1cc2oc(C(=O)Nc3nonc3C)c(C)c2cc1C | 7.0% | -19% | -12 | 3.2 | 8% | x
CN(CCOc1ccccc1)CC(=O)Nc1cccc(Br)c1 | x | -4%[15.4 µM] | 5 | 1.0 | -57% | 0.2
Fc1ccccc1N=C1Nc2cccc3cccc1c23 | x | -20% | -2 | 0.6 | -5% | 1.8
Cc1[nH]n(-c2ccccc2)c(=O)c1N=Nc1cccc(C(=O)O)c1 | x | -26% | -5 | -0.7 | u | 3.9
COc1ccc(CC(=O)Nc2sc3c(c2C(=O)Nc2cccc(C)c2)CCCCC3)cc1 | -1.3% | x | -8 | 1.5 | x | x
CSc1ccc(/C=C2\C(=N)N3N=C(CC(=O)N4CCCCC4)SC3=NC2=O)cc1 | -2.1% | u | 27 | 0.9 | -12% | u
CCN(CC)S(=O)(=O)c1cccc(C(=O)Nc2ccccc2)c1 | 1.2% | 4% | -2 | -1.2 | 4% | 1.7
Cc1ccc(CNC(=O)CCCCn2c(=O)c3ccccc3n(Cc3c(C)cc(C)cc3C)c2=O)cc1 | 0.3% | x | -1 | -0.6 | x | x
CCOC(=O)C1=C(C)Nc2ccccc2N/C1=N\S(=O)(=O)c1cc(C(=O)O)ccc1Cl | 0.7% | -23% | -5 | -0.1 | 2% | x

The final two records of the section above are carried over, then new ones follow.
SMILES | ClpP mod | gsp ag | TRPML1 inh | TRPML1 ag | gsp antag | Menin-MLL FL inh
Cc1ccc(CNC(=O)CCCCn2c(=O)c3ccccc3n(Cc3c(C)cc(C)cc3C)c2=O)cc1 | 0.3% | x | -1 | -0.6 | x | x
CCOC(=O)C1=C(C)Nc2ccccc2N/C1=N\S(=O)(=O)c1cc(C(=O)O)ccc1Cl | 0.7% | -23% | -5 | -0.1 | 2% | x
Cn1c(SCC(=O)N2CCCCC2)nc2c([nH]c3ccccc32)c1=O | -2.2% | -7% | 4 | -1.2 | 2% | 2.4
COC(=O)c1nn(-c2ccccc2)c(=O)cc1O | x | -11%[15.4 µM] | -15 | -0.6 | 17% | -0.2
Cc1c(C(N)=O)sc(N)c1C(=O)OC(C)C | 3.7% | -8% | 8 | -0.2 | 20% | 0.3
O=C(C(F)C(F)(F)F)N1CCN(c2ccccc2)CC1 (stereo unspecified) | -2.1% | 5% | 3 | 0.2 | 1% | -2.0
Cc1c(NC(=S)NC(C)(C)C)c(=O)n(-c2ccccc2)n1C | x | -11%[15.4 µM] | 3 | -0.6 | 10% | 1.3
Cc1n[nH]c(C)c1S(=O)(=O)N1CCC(C(=O)Nc2cccc(F)c2)CC1 | -3.6% | 8% | -1 | 0.2 | 9% | -7.9
COc1ccc(N2CCN(C(=O)CCc3ccccc3)CC2)cc1 | -4.5% | 26% | -5 | 0.8 | 2% | -4.3
N#C/C(=C\c1ccccc1)C(=O)Nc1cccnc1 | 1.0% | 9% | -4 | -0.1 | 6% | 3.3
